VCAM-1 augmentation – boosters of cytokine-driven VCAM-1 levels – imaging, high-content imaging, pooled HUVEC, TNFa stimulus (AID 457); calls only; Pooled HUVEC, TNFa-induced VCAM-1 immunofluorescence imaging; hits of this screen are not shown here; actives 0.2% (n = 10,000);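 active means a top-ranked rise in VCAM-1 staining upheld on image or statistical review; inactive means the rest, including candidates rejected on review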;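 further: compounds tested at 5 µM in the well; cells exposed to compound for 24 hours before fixing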
FPRL1 binder – human FPRL1 ligand, with FPR counter-screen; AID 441; actives 0.3% (n = 24,000); FPRL1-expressing cells, fluorescent ligand binding inhibition, flow cytometry; inhibition, %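 (tested at 6.7 µM)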;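 further: 0% = buffer alone and 100% = receptor blocker peptide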
Target sequence (P25090 whole entry, looked up): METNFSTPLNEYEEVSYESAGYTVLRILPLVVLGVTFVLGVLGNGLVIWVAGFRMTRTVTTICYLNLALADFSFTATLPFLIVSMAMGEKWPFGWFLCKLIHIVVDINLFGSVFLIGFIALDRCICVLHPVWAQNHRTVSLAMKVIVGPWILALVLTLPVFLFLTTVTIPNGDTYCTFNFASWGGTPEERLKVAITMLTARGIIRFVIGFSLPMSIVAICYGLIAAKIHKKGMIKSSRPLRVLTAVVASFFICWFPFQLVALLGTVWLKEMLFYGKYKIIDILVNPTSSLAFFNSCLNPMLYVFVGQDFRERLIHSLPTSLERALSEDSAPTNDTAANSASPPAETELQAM
FPR binder – ligands of human FPR, also counter-screen for FPRL1 ligands; P21462; FPR-expressing cells, fluorescent ligand binding, flow cytometry; inhibition, %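 (tested at 6.7 µM)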; actives 0.74% (n = 24,000); AID 440;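 further: 0% = buffer wells and 100% = receptor blocker peptide wells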
Target sequence (P21462 whole entry, looked up): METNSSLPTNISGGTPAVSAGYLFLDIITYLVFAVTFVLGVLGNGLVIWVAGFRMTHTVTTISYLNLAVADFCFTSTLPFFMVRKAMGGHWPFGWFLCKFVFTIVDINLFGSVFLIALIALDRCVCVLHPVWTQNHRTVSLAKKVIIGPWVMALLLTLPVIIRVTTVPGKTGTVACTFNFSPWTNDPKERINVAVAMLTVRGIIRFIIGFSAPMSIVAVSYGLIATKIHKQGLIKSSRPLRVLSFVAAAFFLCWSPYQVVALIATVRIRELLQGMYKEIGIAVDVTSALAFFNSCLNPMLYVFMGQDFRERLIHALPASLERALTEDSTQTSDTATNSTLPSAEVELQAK
VCAM-1 inhibition – inhibitors of TNFa-induced VCAM-1 surface display, cell-based, plate reader, pooled HUVEC, TNFa stimulus (AID 454); actives 0.2% (n = 10,000); HUVEC TNFa-induced VCAM-1 surface immunofluorescence, plate reader; numbers were filed only for top-ranked candidate wells; inhibition, % at 5 µM;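 active means compound among top-ranked inhibitors of TNF-induced VCAM-1 adhesion protein staining, with the hit upheld by image or statistical review; inactive means the rest, including hits rejected on review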;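 further: 0% = TNFa with vehicle and 100% = cells without TNFa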
VCAM-1 imaging – inhibitors of TNFa-induced VCAM-1 surface display, imaging, high-content imaging, pooled HUVEC, TNFa stimulus (AID 456); HUVEC TNFa-induced VCAM-1 surface expression, immunofluorescence imaging; numbers were filed only for top-ranked candidate wells; one-dose inhibition, % at 5 µM; IC50 in µM for titrated hits; actives 0.2% (n = 10,000);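 active means top tenth filtered wells with inhibition above zero that passed visual or statistical confirmation; inactive means the rest, including hits rejected on review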;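 further: 0% = stimulated vehicle wells and 100% = unstimulated cells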
Numbers without * were called inactive; i = inactive; . = no result given.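 How the source made its calls, unless noted: active means mean above 30%; inconclusive means self-fluorescent; inactive means the rest.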 An excerpt (hit frequency here may not be typical).

Compound	VCAM-1 inhibition	FPR binder	VCAM-1 augmentation	VCAM-1 imaging	FPRL1 binder
COC(=O)C(c1cc(OC)c(O)c(OC)c1)(N1CCNC(C)C1)C(F)(F)F (stereo unspecified)	.	-4.3	.	.	-4.3
O=C(c1c[nH]c2ccc(S(=O)(=O)N3CCOCC3)cc2c1=O)N1CCN(c2ccccn2)CC1	.	5.2	.	.	1.3
CCCC(C)c1nnc(NC(=O)C2CCCO2)s1 (stereo unspecified)	i	-8.7	i	i	3.1
Cc1cccc(NC(=O)C(NS(=O)(=O)c2ccc3c(c2)CCC(=O)N3)c2ccccc2)n1 (stereo unspecified)	.	3.0	.	.	-2.8
Cc1cccc(N2CCN(C(=O)CCCn3c(=S)[nH]c4cc5c(cc4c3=O)OCO5)CC2)c1C	.	1.5	.	.	-2.4
COc1ccc(C2CC(=O)N3C(=C2C#N)SCC3(O)c2ccccc2)cc1 (stereo unspecified)	.	16.3	.	.	-8.0
CS(=O)(=O)c1nc(-c2ccccc2)cc(C(F)(F)F)n1	.	-12.3	.	.	2.1
COc1ccc(-c2cc(C(=O)N3CC4(C)CC3CC(C)(C)C4)no2)cc1OC (stereo unspecified)	.	2.3	.	.	-1.5
Cc1cc(NC(=O)c2cnc3ccccn3c2=O)no1	.	-0.2	.	.	5.8
CCOc1ccc(CCNC(=O)C2CCN(S(=O)(=O)N3CCOCC3)CC2)cc1OCC	.	2.3	.	.	6.7
CCC(C)NC(=O)CN1C(=O)CC(C)(C)S(=O)(=O)c2ccccc21 (stereo unspecified)	.	-3.5	.	.	0.6
C=CCOc1ccc(/C(O)=C2/C(=O)C(=O)N(CCN3CCOCC3)C2c2ccc(C)cc2)cc1 (stereo unspecified)	.	-5.6	.	.	-6.1
COc1ccc(C(=O)N(CN2CCCC2=O)c2ccccc2OC)cc1OC	.	-1.1	.	.	2.3
CC(=O)Nc1nonc1NC(=O)CSc1ncn[nH]1	.	0.0	.	.	-2.9
COCCNC(=O)c1cc2c(-c3ccccc3F)nn(C)c2s1	i	-0.8	i	i	-1.5
COc1ccccc1C(=O)n1nc(-c2ccc(Cl)cc2)nc1N	i	0.0	i	i	-5.5
O=C(NCc1ccccn1)C1CCN(S(=O)(=O)c2cccs2)CC1	.	3.8	.	.	1.9
Cc1nc2ccccc2c2oc(C(=O)NCc3ccc4c(c3)OCO4)cc12	.	-11.0	.	.	-5.4
COc1ccc(C2/C(=C(/O)c3ccccc3)C(=O)C(=O)N2c2ccccn2)c(OC)c1 (stereo unspecified)	.	8.6	.	.	-3.5
Cc1ccc(S(=O)(=O)NCc2cn3ccsc3n2)c(C)c1	.	1.9	.	.	3.3

Arranged by SMILES length (falling): 15 of the compounds above.
Compound	VCAM-1 inhibition	FPR binder	VCAM-1 augmentation	VCAM-1 imaging	FPRL1 binder
O=C(c1c[nH]c2ccc(S(=O)(=O)N3CCOCC3)cc2c1=O)N1CCN(c2ccccn2)CC1	.	5.2	.	.	1.3
C=CCOc1ccc(/C(O)=C2/C(=O)C(=O)N(CCN3CCOCC3)C2c2ccc(C)cc2)cc1 (stereo unspecified)	.	-5.6	.	.	-6.1
Cc1cccc(NC(=O)C(NS(=O)(=O)c2ccc3c(c2)CCC(=O)N3)c2ccccc2)n1 (stereo unspecified)	.	3.0	.	.	-2.8
COc1ccc(C2/C(=C(/O)c3ccccc3)C(=O)C(=O)N2c2ccccn2)c(OC)c1 (stereo unspecified)	.	8.6	.	.	-3.5
CCOc1ccc(CCNC(=O)C2CCN(S(=O)(=O)N3CCOCC3)CC2)cc1OCC	.	2.3	.	.	6.7
COc1ccc(-c2cc(C(=O)N3CC4(C)CC3CC(C)(C)C4)no2)cc1OC (stereo unspecified)	.	2.3	.	.	-1.5
CCC(C)NC(=O)CN1C(=O)CC(C)(C)S(=O)(=O)c2ccccc21 (stereo unspecified)	.	-3.5	.	.	0.6
Cc1nc2ccccc2c2oc(C(=O)NCc3ccc4c(c3)OCO4)cc12	.	-11.0	.	.	-5.4
COc1ccc(C(=O)N(CN2CCCC2=O)c2ccccc2OC)cc1OC	.	-1.1	.	.	2.3
O=C(NCc1ccccn1)C1CCN(S(=O)(=O)c2cccs2)CC1	.	3.8	.	.	1.9
CS(=O)(=O)c1nc(-c2ccccc2)cc(C(F)(F)F)n1	.	-12.3	.	.	2.1
COc1ccccc1C(=O)n1nc(-c2ccc(Cl)cc2)nc1N	i	0.0	i	i	-5.5
COCCNC(=O)c1cc2c(-c3ccccc3F)nn(C)c2s1	i	-0.8	i	i	-1.5
CC(=O)Nc1nonc1NC(=O)CSc1ncn[nH]1	.	0.0	.	.	-2.9
CCCC(C)c1nnc(NC(=O)C2CCCO2)s1 (stereo unspecified)	i	-8.7	i	i	3.1

The list continues:
Compound	VCAM-1 inhibition	FPR binder	VCAM-1 augmentation	VCAM-1 imaging	FPRL1 binder
COc1ccccc1-n1c(SCC(=O)Nc2ccccc2F)nc2[nH]ncc2c1=O	.	-7.4	.	.	-1.8
CC1CCc2nn(CC(=O)NCc3ccco3)cc2C1 (stereo unspecified)	.	6.2	.	.	-3.4
Cc1onc(-c2ccccc2Cl)c1C(=O)Nc1cccc(-c2cn3cccnc3n2)c1	i	-7.1	i	i	-2.6
Cc1cc(NC(=O)C23CCC(C)(c4nc5cc(Cl)c(Cl)cc5nc42)C3(C)C)no1 (stereo unspecified)	i	-2.0	i	i	5.6
COc1ccc2c(c1)CCc1c(C(=O)NCc3cccnc3)noc1-2	i	-5.0	i	i	-6.5
O=C(CCCN1C(=O)c2ccccc2C1=O)NCc1cccnc1	i	-3.7	i	i	-0.5
COc1cc(C2CC(=O)NC(SCC(=O)Nc3ccccc3C)=C2C#N)ccc1O (stereo unspecified)	.	-3.3	.	.	-6.2
O=c1cc(N2CCN(Cc3ccccc3)CC2)[nH]c(=O)n1-c1cccc(C(F)(F)F)c1	.	-5.4	.	.	-5.3
COc1ccc(NC(=O)N(C2CCCCC2)C2CCN(C(C)C)CC2)c(OC)c1	i	-5.5	i	i	0.3
FC(F)(F)c1cc(-c2ccco2)nc(NCc2ccccc2)n1	.	10.1	.	.	7.1
CCOC(=O)CCNC(=O)Nc1ccc2nc(C)n(Cc3ccccc3Cl)c(=O)c2c1	i	-26.8	i	i	-1.2
CN(C)c1ccc(C2C3=C(CCCC3=O)OC3=C2C(=O)CCC3)cc1	i	10.1	i	i	1.5
Nc1ccc(-n2ccnc2)cc1	.	-1.8	.	.	1.4
CC1(C)CC(=O)C(C#N)=C(NCCCO)C1	i	-4.9	i	i	1.1
NC(=O)NC(=O)Nc1ccccc1Cl	.	1.6	.	.	-2.0
O=C(O)C1C2C=CC(O2)C1C(=O)NCCCn1ccnc1 (stereo unspecified)	.	-0.8	.	.	-1.8
CC(=O)NCc1nc2ccccc2n1C(C)C	i	-6.5	i	i	2.1
CC1CCc2c(C(=O)NCCCN3CCOCC3)csc2C1 (stereo unspecified)	.	-1.7	.	.	-0.7
Cc1noc(C)c1S(=O)(=O)Nc1ccc(C(=O)N2CCc3ccccc3C2)cc1	.	2.2	.	.	-0.6
CSc1nsc(SCC(=O)N2CCc3ccccc32)n1	i	-14.6	i	i	-17.8
O=C(Cn1cnc2c(nnn2Cc2ccccc2F)c1=O)NCc1ccco1	.	-6.6	.	.	-2.9
CC(=O)c1ccc(OCC(O)CN2CCN(Cc3ccc4c(c3)OCO4)CC2)cc1 (stereo unspecified)	i	2.5	i	i	1.3
CCC(=O)N1c2ccccc2-c2nnc(SC)nc2OC1c1ccc(N(C)C)cc1 (stereo unspecified)	.	12.3	.	.	4.9
CN(Cc1ccccc1)Cc1c[nH]c2ccccc12	i	-0.3	i	i	9.0
Cc1nn(Cc2ccc(F)cc2)c(C)c1NC(=O)c1noc2c1CCCCC2	.	-1.1	.	.	-2.0
CC(=O)NC1=NC(=O)/C(=C/N2CCCCC2)S1	i	10.7	i	i	6.8
COC(=O)c1ccc(NC(=O)c2sc3nc(-c4ccccc4)cn3c2C)cc1	.	-4.1	.	.	-6.1
COc1ccc(C2C(C(=O)Nc3ccc(F)cc3)=C(C)Nc3nc(CCCO)nn32)cc1 (stereo unspecified)	.	-8.6	.	.	-5.8
Cc1nc2ccccc2c(=O)n1NC(=O)c1ccc(F)cc1Cl	i	-0.7	i	i	-4.5
CC1CCCN(C(=O)Cn2c(-c3nonc3N)nc3ccccc32)C1 (stereo unspecified)	.	1.1	.	.	-2.5
O=C(O)c1cc2c([nH]c1=O)CCCC2	i	4.0	i	i	-1.2
Cc1ccc(S(=O)(=O)N2CCCC(C(=O)O)C2)s1 (stereo unspecified)	.	1.3	.	.	-7.3
Cn1cccc1Cc1nnc(SCC(=O)Nc2cccc(Cl)c2)n1-c1ccc(F)cc1	.	3.1	.	.	-0.6
C=C(C)Cn1c(CCCNC(=O)CCC)nc2ccccc21	.	2.7	.	.	0.8
Cn1c(=O)oc2cc(S(=O)(=O)N3CCCc4ccccc43)ccc21	.	2.8	.	.	-0.6
COc1ccc(-c2cc(CCCC(=O)NCCc3ccc(OC)cc3OC)no2)cc1	.	3.7	.	.	0.6
Cc1ccc(-c2nnc(N(C)C(=O)c3ccccn3)s2)cn1	i	-0.4	i	i	-4.9
O=C(Nc1nc(-c2nc3ccccc3s2)cs1)c1ccc(S(=O)(=O)N2CCOCC2)cc1	.	3.0	.	.	5.3
O=C(NCC1CCCO1)C1CCCCN1S(=O)(=O)c1ccc(F)cc1 (stereo unspecified)	.	-3.1	.	.	0.5
CCC(=O)N1CCCc2cc(S(=O)(=O)N3CCN(c4ccccc4F)CC3)ccc21	.	1.9	.	.	2.8
CC(C)CC(NC(=O)C1CCC(C)CC1)C(=O)N1CCN(c2ccccn2)CC1 (stereo unspecified)	.	6.2	.	.	-3.4
COc1ccc(-c2cc(N)n(S(=O)(=O)c3c(F)c(F)c(F)c(F)c3F)n2)cc1OC	.	-3.5	.	.	-5.5
Cc1nn(C)c(C)c1CN(C)C(=O)c1cc2nc(-c3ccco3)cc(C(F)(F)F)n2n1	i	1.7	i	i	-2.2
Cc1cc(Cl)c(S(=O)(=O)Nc2ccc3c(c2)OCCO3)cc1OCC(N)=O	i	-7.6	i	i	2.7
O=C(COc1ccccc1)Nc1ccccc1N1CCN(c2ccccc2)CC1	i	-5.6	i	i	1.0
COc1ccc(-c2oc3ncn(CCN4CCOCC4)c(=N)c3c2-c2ccc(OC)cc2)cc1	i	-8.1	i	i	-5.0
C=CCOC(=O)c1[nH]c2c(c1C)C(=O)CC(c1ccco1)C2 (stereo unspecified)	.	10.2	.	.	8.4
CC1=C(C(=O)NC2CCCC(C)C2C)C2(CCCCC2)OC1=O (stereo unspecified)	i	-6.3	i	i	-1.6
Cc1ccc(-c2noc(C3CCCN(C(=O)c4ccccc4)C3)n2)o1 (stereo unspecified)	i	4.0	i	i	-1.1
COc1ccc(C2CC(c3ccc(F)cc3)Nc3nc(N)nn32)cc1 (stereo unspecified)	.	-4.9	.	.	13.7
O=C(CCNS(=O)(=O)c1cccc2nsnc12)NCCC1=CCCCC1	.	0.4	.	.	-3.5
CC(=O)c1cccc(NC(=O)c2nccnc2C(=O)O)c1	.	-8.9	.	.	-11.4
O=C(c1ccc(Cl)c(F)c1F)N1CCCC1	i	-0.4	i	i	11.2
COC(=O)CN(c1ccc2c(c1)OCO2)S(C)(=O)=O	i	-3.7	i	i	5.0
CN(C(=O)COC(=O)C1CCN(S(=O)(=O)c2cccs2)CC1)C1CCS(=O)(=O)C1 (stereo unspecified)	i	-3.7	i	i	-0.3
c1ccc(Cn2nnc3c(N4CCCCCC4)ncnc32)cc1	i	2.1	i	i	1.4
COC(=O)c1ccc(-c2cc(C(=O)O)c3cc4c(cc3n2)OCCO4)cc1	.	0.0	.	.	3.0
Cc1cc(NC(=O)c2cnn3cccnc23)no1	i	0.5	i	i	13.4
CCCCc1ccc(NC(=O)c2c(C)noc2C)cc1	i	0.3	i	i	-4.9

Assay outcomes from PubChem.
